Compound activity deposited in PubChem by Broad Institute.
Ecoli rRNA inh: inhibits bacterial ribosomal RNA function over humanized ribosomes; 1.6% of 350,000 active; E. coli WT GFP vs humanized-ribosome RFP mutants, fluorescence, 24 h; stronger effect = lower value; DMSO median 0, no signal -100; GFP signal change (wild-type ribosome), % (concentration not given with the values);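 active = significant combined selectivity score with lowered wild-type GFP, culture density cut under 30%, mutant RFP and density less affected; inactive = any of these conditions unmet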; also: one replicate is shown; some compounds called inactive have numbers as strong as hits
FGF22 binding: FGF22 (human) thermal shift binding; recombinant FGF22 thermal shift, SYPRO orange fluorescence; percent of sucrose octasulfate shift, DMSO zero; calls only at 9.99 µM; 1.5% of 340,000 active;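 active = melting point raised past a set limit in the mean and every replicate; three in four hits are not shown here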
Target sequence (Q9HCT0 whole entry, looked up): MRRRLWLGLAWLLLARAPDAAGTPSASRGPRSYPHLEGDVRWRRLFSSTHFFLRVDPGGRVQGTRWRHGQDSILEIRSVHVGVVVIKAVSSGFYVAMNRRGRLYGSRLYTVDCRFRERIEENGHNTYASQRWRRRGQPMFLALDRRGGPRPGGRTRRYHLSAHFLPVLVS
Ecoli rRNA inh OD600: recorded beside Ecoli rRNA inh, whose call it bears; OD600 change, %; measured here: OD600 growth;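 optical density of the mix in the first replicate; 0 = DMSO median and -100 = no signal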
Ecoli rRNA inh RFP: recorded beside Ecoli rRNA inh, whose call it bears; RFP signal change, %; measured here: RFP humanized mutant strains;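 first replicate; 0 = DMSO median and -100 = no signal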
The depositor's hits bear a star; i = inactive.

SMILES,Ecoli rRNA inh OD600,Ecoli rRNA inh RFP,FGF22 binding,Ecoli rRNA inh
COc1ccc(S(=O)(=O)N(C)C[C@@H]2Oc3ccc(NS(=O)(=O)c4ccc(C)cc4)cc3CC(=O)N([C@H](C)CO)C[C@H]2C)cc1,0.1,0.6,i,1.1
O=C(C[C@@H]1C[C@H]2c3cc(NC(=O)C4CCOCC4)ccc3O[C@H]2[C@H](CO)O1)NCC(F)(F)F,9.1,0.1,i,4.5
CCCNC(=O)c1cc2c(c(-c3cccc(-c4ccncc4)c3)n1)[C@@H](CCO)N(S(=O)(=O)CC)C2,0.0,-3.3,i,-2.1
O=C(CN1CCOCC1)N1CCCCN2[C@@H](CO)[C@H](c3ccc(-c4ccccc4F)cc3)[C@@H]2C1,15.9,4.9,i,0.2
COc1ccc(N2C(=O)c3[nH]nc(-c4ccccc4)c3C2c2cccc(C(F)(F)F)c2)cc1 (stereo not drawn),6.4,2.6,i,-3.6
C[C@H]1CN([C@@H](C)CO)S(=O)(=O)c2ccc(C#CCN(C)C)cc2O[C@@H]1CN(C)C(=O)Nc1ccccc1F,-2.1,-0.6,i,-2.0
Cc1noc(C)c1NC(=O)N(C)C[C@H]1Oc2ccc(NC(=O)CCC(F)(F)F)cc2CC(=O)N([C@@H](C)CO)C[C@@H]1C,5.1,0.3,i,-2.9
CCCC#Cc1cnc2c(c1)C(=O)N([C@H](C)CO)C[C@H](C)[C@@H](CN(C)C(=O)NC1CCCC1)O2,10.8,0.1,i,3.2
CN(C)CCCNC(=O)[C@@H]1[C@@H](CO)[C@@H]2Cn3c(ccc(C4=CCCC4)c3=O)[C@H]1N2Cc1cocn1,-1.2,-3.4,i,3.2
COCC(=O)N1[C@H](CO)[C@H](c2ccccc2-c2ccccc2F)[C@@H]1C#N,-1.7,-0.7,i,-1.8
O=[N+]([O-])c1ccc2c(c1)CCO[C@@]21O[C@H](CCO)C[C@H](O)[C@H]1O,0.6,4.8,i,18.9
CCNC(=O)C[C@@H]1C=C[C@H](NC(=O)C2CCC2)[C@@H](CO)O1,11.4,0.0,i,3.7
Cc1cccc(-c2ccc([C@H]3[C@H]4CN(C(=O)c5ccc6c(c5)OCO6)CCCCN4[C@H]3CO)cc2)c1,-21.7,26.0,i,-3.0
COc1cccc(CN2CC3(CCN(S(C)(=O)=O)CC3)c3c(n(C)c4cc(OC)ccc34)[C@H]2CO)c1,-9.8,1.9,i,-2.4
COC(=O)C1=C(C)N(C)C(=NCc2ccc(OC)cc2)NC1c1ccccc1 (stereo not drawn),13.8,0.0,i,11.6
CC(C)NC(=O)N1[C@H](C#N)[C@@H](c2ccc(C#CC3CCCC3)cc2)[C@@H]1CO,0.4,-0.5,i,1.7
CC(C)CC#Cc1ccc2c(c1)O[C@@H](CN(C)C(=O)c1ccccc1)[C@H](C)CN([C@@H](C)CO)S2(=O)=O,-18.8,1.3,i,-5.5
C[C@@H]1ON(C)[C@H]2C[C@H]3c4[nH]c5cccc(-c6ccccc6F)c5c4CCN3C(=O)[C@@H]12,-36.8,-1.8,i,-26.8
CO[C@H]1CN(C)C(=O)c2ccc(NS(C)(=O)=O)cc2OC[C@H](C)N(Cc2ccccn2)C[C@@H]1C,-0.8,-3.1,i,2.7
O=C(C[C@@H]1C=C[C@@H](NC(=O)C2CCOCC2)[C@H](CO)O1)NCc1ccncc1,5.0,-1.6,i,-0.3
COc1ccc(S(=O)(=O)Nc2ccc3c(c2)C(=O)N([C@H](C)CO)C[C@@H](C)[C@@H](CN(C)S(=O)(=O)c2ccc(C)cc2)OCCCC[C@@H](C)O3)cc1,7.7,2.5,i,1.0
COCC(=O)N1[C@H](C#N)[C@H](c2ccc(C3=CCCC3)cc2)[C@@H]1CO,8.1,-0.6,i,1.4
COc1ccc(NC(=O)N[C@@H]2CC[C@@H](CCNC(=O)c3cc(Cl)cc(Cl)c3)O[C@H]2CO)cc1,1.7,1.1,i,-1.2
CO[C@H]1CN(C)C(=O)c2cc(NS(C)(=O)=O)ccc2OC[C@H](C)NC[C@@H]1C,2.4,-2.2,i,2.7
COc1ccc(S(=O)(=O)N(C)C[C@H]2Oc3c(NC(=O)CCCCCC(=O)Nc4ccccc4N)cccc3C(=O)N([C@H](C)CO)C[C@@H]2C)cc1,0.1,1.6,i,-0.8
COC(=O)[C@]12C[C@H](CC(=O)NCCC(C)C)C(=O)N(Cc3ccccc3)C1=C[C@H](C(C)(C)C)O[C@@H]2C,3.2,2.9,i,8.1
C[C@@H]1CCCCO[C@@H](CN(C)C(=O)CCCN(C)C)[C@H](C)CN([C@@H](C)CO)C(=O)c2cc(NC(=O)Nc3ccccc3)ccc2O1,1.6,-1.0,i,-0.2
C[C@@H]1CCCCO[C@@H](CN(C)CC2CCCCC2)[C@H](C)CN([C@H](C)CO)C(=O)c2cc(NC(=O)c3ccncc3)ccc2O1,-3.7,0.4,i,0.1
CC(C)NC(=O)N(C)C[C@H]1OCCCC[C@@H](C)Oc2ccc(NC(=O)c3ccncc3)cc2C(=O)N([C@@H](C)CO)C[C@@H]1C,5.1,-1.0,i,3.9
C[C@@H]1CN([C@@H](C)CO)C(=O)c2cc(C3=CCCC3)cnc2O[C@@H]1CN(C)C(=O)c1ccc2c(c1)OCO2,5.1,-1.1,i,7.5
CO[C@@H]1CN(C)C(=O)c2ccc(NC(=O)C3CCCC3)cc2OC[C@@H](C)N(C(=O)Nc2ccc(C(F)(F)F)cc2)C[C@H]1C,-56.6,-6.3,i,-51.5
CC(C)C#Cc1ccc([C@H]2[C@@H](CO)N(C(=O)c3cccc(F)c3)[C@H]2C#N)cc1,-15.1,-0.2,i,-1.6
COc1ccccc1C#Cc1cnc2c(c1)C(=O)N([C@@H](C)CO)C[C@@H](C)[C@H](CN(C)C(=O)c1ccc3c(c1)OCO3)O2,-2.2,0.3,i,2.1
O=C(N[C@@H]1CC[C@H](CCNS(=O)(=O)c2ccc(F)cc2)O[C@@H]1CO)C1CC1,-2.5,-0.7,i,2.0
CNC(=O)C[C@H]1CC[C@@H]2[C@H](COC[C@@H](O)CN2Cc2ccc(Cl)c(Cl)c2)O1,-7.3,0.4,i,-5.7
C[C@H](CO)N1C[C@H](C)[C@H](CN(C)C(=O)Cc2ccncc2)Oc2cc(C3=CCCC3)ccc2S1(=O)=O,-2.2,-0.6,i,-0.2
CCCNC(=O)N1CCC2(CC1)CN(C(=O)CC)[C@H](CO)c1c2c2ccc(OC)cc2n1C,-0.7,-6.5,i,-0.6
CC(=O)Nc1ccc2c(c1)C(=O)N(C)[C@H]1CC[C@H](CC(=O)NCC3CCCCC3)O[C@H]1CO2,0.7,1.4,i,-0.2
CC(C)C#Cc1ccc([C@@H]2[C@@H](CO)N3CCCCN(CC4CC4)C[C@@H]23)cc1,-13.2,-1.5,i,4.5
OC[C@@H]1[C@H](c2ccc(-c3ccccc3)cc2)[C@H]2CN(Cc3cncnc3)CCCCN12,6.8,3.3,i,6.7
CCC(=O)Nc1ccc2c(c1)C(=O)N(C)[C@H]1CC[C@H](CC(=O)NCc3ccccc3Cl)O[C@H]1CO2,0.6,0.6,i,3.3
Cc1noc(C)c1S(=O)(=O)Nc1ccc2c(c1)CC(=O)N([C@@H](C)CO)C[C@@H](C)[C@H](CN(C)Cc1ccc(Oc3ccccc3)cc1)O2,-14.1,12.6,i,-0.6
COc1ccc(NC(=O)Nc2ccc3c(c2)CC(=O)N([C@H](C)CO)C[C@H](C)[C@@H](CN(C)C(=O)Nc2ccc(C(F)(F)F)cc2)O3)cc1,-10.0,-1.5,i,-3.6
C[C@@H]1CN([C@@H](C)CO)C(=O)c2cc(-c3ccncc3)cnc2O[C@H]1CN(C)C(=O)C1CCOCC1,29.7,-0.7,i,9.2
Cc1ccc(S(=O)(=O)Nc2ccc3c(c2)C(=O)N(C)[C@@H]2CC[C@H](CC(=O)O)O[C@H]2CO3)cc1,-4.7,-4.1,i,1.0
C[C@H]1CN([C@@H](C)CO)C(=O)Cc2cc(NS(=O)(=O)c3cccs3)ccc2O[C@@H]1CN(C)Cc1ccc2c(c1)OCO2,-8.4,1.6,i,-4.6
Cc1cc(C(=O)Nc2cccc3c2O[C@@H](CN(C)CC2CC2)[C@H](C)CN([C@@H](C)CO)C3=O)n(C)n1,2.8,-0.1,i,-0.3
COc1ccc2c3c([nH]c2c1)[C@@H](CO)N(C(=O)C1CCC1)CC31CCN(S(C)(=O)=O)CC1,-6.2,1.3,i,-0.9
COc1ccc(OC(=O)N(C)C[C@H]2OCc3ccccc3-c3ccccc3C(=O)N([C@H](C)CO)C[C@H]2C)cc1,2.6,-1.5,i,-2.0
C[C@H](CO)N1C[C@H](C)[C@@H](CN(C)Cc2ccccn2)Oc2ncc(C#Cc3ccccc3)cc2C1=O,-15.8,9.8,i,-4.3

Next part; the last six above are carried over.
SMILES,Ecoli rRNA inh OD600,Ecoli rRNA inh RFP,FGF22 binding,Ecoli rRNA inh
Cc1ccc(S(=O)(=O)Nc2ccc3c(c2)C(=O)N(C)[C@@H]2CC[C@H](CC(=O)O)O[C@H]2CO3)cc1,-4.7,-4.1,i,1.0
C[C@H]1CN([C@@H](C)CO)C(=O)Cc2cc(NS(=O)(=O)c3cccs3)ccc2O[C@@H]1CN(C)Cc1ccc2c(c1)OCO2,-8.4,1.6,i,-4.6
Cc1cc(C(=O)Nc2cccc3c2O[C@@H](CN(C)CC2CC2)[C@H](C)CN([C@@H](C)CO)C3=O)n(C)n1,2.8,-0.1,i,-0.3
COc1ccc2c3c([nH]c2c1)[C@@H](CO)N(C(=O)C1CCC1)CC31CCN(S(C)(=O)=O)CC1,-6.2,1.3,i,-0.9
COc1ccc(OC(=O)N(C)C[C@H]2OCc3ccccc3-c3ccccc3C(=O)N([C@H](C)CO)C[C@H]2C)cc1,2.6,-1.5,i,-2.0
C[C@H](CO)N1C[C@H](C)[C@@H](CN(C)Cc2ccccn2)Oc2ncc(C#Cc3ccccc3)cc2C1=O,-15.8,9.8,i,-4.3
CO[C@@H]1CN(C)C(=O)c2cc(NC(=O)C3CCCC3)ccc2OC[C@H](C)NC[C@H]1C,-0.8,-0.8,i,3.5
Cc1ccccc1S(=O)(=O)N1C[C@H](O)COC[C@@H]2O[C@H](CC(=O)NCc3ccccc3Cl)CC[C@H]21,0.7,5.0,i,1.7
C[C@@H]1CN([C@H](C)CO)C(=O)c2cc(NS(=O)(=O)c3ccccc3)ccc2O[C@@H](C)CCCCO[C@@H]1CN(C)CC1CCCCC1,-16.7,11.4,i,-1.4
COc1ccc(S(=O)(=O)Nc2ccc3c(c2)C(=O)N([C@H](C)CO)C[C@@H](C)[C@@H](CN(C)C(=O)c2ccncc2)OCCCC[C@@H](C)O3)cc1,-11.0,-1.9,i,-5.1
COc1ccc(CN(C)C[C@H]2Oc3ccc(NS(C)(=O)=O)cc3C(=O)N([C@H](C)CO)C[C@@H]2C)cc1,-5.9,-0.2,i,0.1
C[C@H](CO)N1C[C@H](C)[C@@H](CN(C)Cc2ccncc2)Oc2c(NC(=O)Nc3ccc4c(c3)OCO4)cccc2C1=O,1.2,-0.9,i,1.7
COCC(=O)N1C[C@@H](C)[C@H](OC)CN(C)C(=O)c2cc(NC(=O)C3CCC3)ccc2OC[C@H]1C,0.7,-1.3,i,1.7
C[C@H]1CN([C@@H](C)CO)C(=O)c2cccc(NS(=O)(=O)c3ccccc3)c2O[C@@H]1CN(C)Cc1ccc(Cl)c(Cl)c1,-7.8,-2.2,i,-3.0
COc1ccc(S(=O)(=O)Nc2ccc3c(c2)C(=O)N([C@@H](C)CO)C[C@H](C)[C@H](CN(C)Cc2ccc(Oc4ccccc4)cc2)O3)cc1,-3.9,8.1,i,5.4
C[C@@H]1CN([C@@H](C)CO)C(=O)CCCn2cc(nn2)CO[C@@H]1CN(C)Cc1ccccc1C(=O)O,2.0,0.7,i,-0.6
CC(C)NC(=O)Nc1cccc2c1O[C@@H](CN(C)Cc1ccc(C(F)(F)F)cc1)[C@H](C)CN([C@H](C)CO)C2=O,-13.9,-2.0,i,-2.6
C[C@@H]1CCCCO[C@H](CN(C)S(=O)(=O)c2ccc(Cl)cc2)[C@@H](C)CN([C@H](C)CO)C(=O)c2cc(NC(=O)Cc3ccccc3)ccc2O1,6.0,-1.0,i,2.9
C[C@@H]1CN([C@H](C)CO)S(=O)(=O)c2ccc(Br)cc2O[C@H]1CN(C)S(=O)(=O)c1ccc(F)cc1,-65.8,0.1,i,-33.3
C[C@@H]1CCCCO[C@@H](CN(C)Cc2ccc(C(=O)O)cc2)[C@@H](C)CN([C@@H](C)CO)C(=O)c2cc(NC(=O)Cc3ccccc3)ccc2O1,8.8,-2.0,i,5.8
Cc1ccc(S(=O)(=O)N(C)C[C@@H]2Oc3ccc(NC(=O)Nc4ccc5c(c4)OCO5)cc3CC(=O)N([C@@H](C)CO)C[C@@H]2C)cc1,-3.8,1.6,i,3.7
CO[C@H]1CN(C)C(=O)c2cc(NS(=O)(=O)CC(F)(F)F)ccc2OC[C@H](C)N(Cc2cccnc2)C[C@@H]1C,-1.0,2.1,i,-0.6

The list is partial; the hit share may differ from the screen's.
